PKD1 inh: blocks activity of human protein kinase D1 | inhibition, %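 (about 10 µM by stock and volumes)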 | AID 797 | PKD1 kinase fluorescence polarization assay | Q15139 | 200,000 tested, 0.056% active;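 active = inhibition of 50% or more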;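 note: controls were vehicle for no effect and a reference inhibitor for full effect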
HSV augment: HSV replication enhancement. HSV replication augmentation in cells, fold increase. maximum fold increase. 220,000 tested, 0.005% active;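 active = peak rise of 1.5-fold or more in the series; inconclusive = self-fluorescent or not available for retest; tested in PC3 cells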;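 note: first round at 10 µM; read as green reporter fluorescence; hits show the peak of a series up to 25 µM; 1 = signal of infected wells without compound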
RGS16-Gao: modulates binding between human RGS16 and Galphao; O15492+P09471; binding response (% of control), % at 10 µM; AID 1441; 220,000 tested, 0.38% active; bead-based flow cytometry RGS16-Galphao binding, fluorescence; actives lie on both sides;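 active = below 25% or above 175%, edge rows of some plates excepted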;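 note: Galphao activated by GDP with aluminum fluoride before binding; 100% = wells without compound and 0% = beads without RGS; some results beyond the cut were filed as inactive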
Target sequence (O15492 whole entry, looked up): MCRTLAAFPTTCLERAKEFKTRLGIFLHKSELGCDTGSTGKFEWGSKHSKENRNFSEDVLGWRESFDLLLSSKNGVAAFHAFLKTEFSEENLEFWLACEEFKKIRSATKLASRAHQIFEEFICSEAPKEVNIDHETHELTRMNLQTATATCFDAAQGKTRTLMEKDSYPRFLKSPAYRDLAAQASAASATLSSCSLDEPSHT
Target sequence (P09471 whole entry, looked up): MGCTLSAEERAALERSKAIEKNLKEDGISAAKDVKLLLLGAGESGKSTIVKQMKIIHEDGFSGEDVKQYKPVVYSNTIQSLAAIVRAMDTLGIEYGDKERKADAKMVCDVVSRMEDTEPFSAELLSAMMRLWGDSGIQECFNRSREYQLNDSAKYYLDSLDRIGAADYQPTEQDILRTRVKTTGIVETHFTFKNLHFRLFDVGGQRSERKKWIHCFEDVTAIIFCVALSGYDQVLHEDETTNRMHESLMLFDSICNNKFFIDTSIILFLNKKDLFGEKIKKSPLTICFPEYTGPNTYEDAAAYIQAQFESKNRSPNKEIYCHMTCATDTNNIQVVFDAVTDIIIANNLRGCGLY
GALR2 agonist: agonists of human galanin receptor 2 (GALR2); O43603; GALR2-expressing cells, agonist activation read-out; activation, %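 (tested at 5 µM)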; 140,000 tested, 0.48% active; AID 803;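 active = above mean plus 3 SD of all compounds, about 5% in these data, not always enough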;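 note: 0% = vehicle buffer wells and 100% = reference agonist at full effect; tested in CHO reporter cells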
Target sequence (O43603 whole entry, looked up): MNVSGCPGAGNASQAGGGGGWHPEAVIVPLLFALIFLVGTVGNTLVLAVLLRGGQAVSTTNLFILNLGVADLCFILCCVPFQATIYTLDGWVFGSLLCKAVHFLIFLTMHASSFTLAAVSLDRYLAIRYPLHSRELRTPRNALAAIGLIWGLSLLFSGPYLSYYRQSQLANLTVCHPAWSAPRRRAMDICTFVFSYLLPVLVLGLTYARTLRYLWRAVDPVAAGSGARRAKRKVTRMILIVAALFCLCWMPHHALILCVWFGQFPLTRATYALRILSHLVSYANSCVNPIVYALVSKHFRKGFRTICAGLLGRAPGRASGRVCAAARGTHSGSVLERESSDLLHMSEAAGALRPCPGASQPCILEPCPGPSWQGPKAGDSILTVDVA
Insulin prom inh: TRM-6 insulin promoter activity inhibition. TRM-6 cells (human fetal islet line), insulin promoter-eGFP reporter, imaging; reporter expression induced with tamoxifen. 130,000 tested, 0.9% active. inhibition, % at 2 µM;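 active = inhibition above the mean plus 3 SD, with well images judged a real hit on visual review, cut at about 60% in these data, passing the limit was not always enough; inconclusive = inhibition over the cutoff but images rejected on review; inactive = inhibition not above the cutoff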
Insulin prom inh cell count: second read-out of Insulin prom inh, no call of its own (marks repeat the call); normalized cell count, %; measured here: cell count, toxicity; reference of the scale not given here;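 cells exposed to compound for 48 h; stained nuclei by imaging scaled within each plate; lower means fewer cells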
HSV augment primary fold: second read-out of HSV augment, no call of its own (marks repeat the call); fold increase; compound at 10 µM; measured here: primary screen fold increase 10 uM; tested in PC3 cells;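 GFP signal in the first replicate; 1 = infected wells without compound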
Starred values were filed as active, the others as inactive; i = inactive; u = inconclusive; x = no result given.

Molecule	Insulin prom inh	Insulin prom inh cell count	PKD1 inh	HSV augment primary fold	HSV augment	RGS16-Gao	GALR2 agonist
CCOc1ccccc1N1C(=O)c2cccnc2C1=O	x	x	-6	1	i	104	-2.3
COc1ccc(CC(=O)Nc2nn(C)c3nc4c(C)cccc4cc23)cc1	x	x	x	0.92	i	96	x
Cc1cc(=O)n(CCO)c(O)c1C#N	-32	120	-4	0.98	i	99	-1.9
COc1cc2cc(CN(CCO)C(=O)c3cccs3)c(=O)[nH]c2cc1OC	x	x	3	0.95	i	106	-0.1
COC(=O)C1OC2(OC1C(=O)OC)c1ccccc1-c1ccccc12 (stereo unspecified)	10	93	-1	1.1	i	102	-2.1
Cc1c(C(=O)Nc2ccc3c4c(cccc24)CC3)cccc1[N+](=O)[O-]	37	66	-13	0.86	i	99	-1.6
O=C(O)CCNS(=O)(=O)c1ccc(Oc2ccccc2Cl)cc1	-32	90	0	0.8	i	101	-0.9
COC(=O)c1ccc(NC(=O)Cn2nnc(-c3cccs3)n2)cc1	x	x	-2	0.74	i	101	x
CCn1ncc(CNC(=O)C2(C)CC2(Cl)Cl)c1C (stereo unspecified)	-21	83	9	1.1	i	37	-2.7
CC(C)(O)[C@H](O)COc1c2ccoc2cc2oc(=O)ccc12	-10	102	-5	0.88	i	103	-1.1
O=C(c1ccc(S(=O)(=O)N2CCCCC2)cc1)c1nnc(-c2ccc(Cl)cc2)o1	x	x	-14	1.1	i	-140	-1.1
O=C1CN=C(Nc2ccc(Cl)cc2)N1c1ccccc1	-44	101	-7	0.93	i	101	-0.9
CC1(CCC#N)N=C(SCCC#N)N(c2ccccc2)C1=O (stereo unspecified)	x	x	-4	0.8	i	97	-0.1
O=C(CNC(=O)c1ccc(Br)cc1)NCC(=O)OCC(=O)c1ccc([N+](=O)[O-])cc1	27	97	0	0.71	i	60	0.3
Cc1cc(=O)oc2cc(OCCSCCN3CCCCC3)ccc12	x	x	x	0.97	i	98	x

The list continues.
Molecule	Insulin prom inh	Insulin prom inh cell count	PKD1 inh	HSV augment primary fold	HSV augment	RGS16-Gao	GALR2 agonist
COc1ccccc1NC(=O)COC(=O)Cc1ccc(S(=O)(=O)N2CCCCC2)s1	10	105	-1	1.1	i	118	x
C=C(C)Cn1c(CNC(C)=O)nc2ccccc21	0	164	2	0.83	i	101	-0.4
CC(C)N(C(=O)CSc1nnnn1C1CCCC1)C(C)C	x	x	-12	0.85	i	103	-0.2
CCOC(=O)c1c(C)[nH]c(C)c1C(=O)CSc1nnc(N)s1	x	x	7	0.92	i	99	x
O=C(COC(=O)CCC(=O)c1cccs1)NCc1ccc(Cl)cc1	x	x	-4	0.84	i	118	x
COc1ccc(C(=O)c2sc3nc(-c4ccccc4)ccc3c2N)cc1OC	x	x	1	x	u	93	0.2
CC(C)C(OC(=O)c1ccco1)C(=O)NCc1ccccc1 (stereo unspecified)	-94	82	-2	0.9	i	103	0.1
O=C(c1ccccc1SCc1ccccc1)N1CCOCC1	x	x	-5	0.95	i	100	x
Cc1cc(C)n2c(SCC(=O)Nc3ncc(C(F)(F)F)cc3Cl)nnc2n1	x	x	2	0.97	i	97	-1.9
N=C(N)SCc1ccccc1Cl	0	51	6	0.76	i	90	-0.9
O=C(Cc1ccc(Nc2nc3ccc(Br)cc3[nH]2)cc1)NCCc1cccs1	-36	40	9	0.7	i	148	-1.7
Cc1ccc(N2CC(C(=O)NCC3CCCO3)CC2=O)cc1Cl (stereo unspecified)	x	x	-4	0.89	i	106	-0.1
CCCNC(=O)Cn1cnc2sc(C(=O)N3CCN(CCC)CC3)c(C)c2c1=O	13	124	-19	0.93	i	105	-2.5
CC(=O)Nc1ccc2c(CSc3nncs3)cc(=O)oc2c1	x	x	x	0.99	i	102	x
COC(=O)c1cc(N=CC2=C(O)CC(C)(C)CC2=O)cc(C(=O)OC)c1	-15	92	4	1.1	i	114	-0.7

(next part)
Molecule	Insulin prom inh	Insulin prom inh cell count	PKD1 inh	HSV augment primary fold	HSV augment	RGS16-Gao	GALR2 agonist
CNc1nc(C)cc(C)c1S(=O)(=O)c1ccc(C)cc1	-79	101	-5	0.95	i	113	-1.9
CC1CCN(c2ncnc3c2cnn3Cc2ccc(Cl)cc2)CC1	x	x	-1	0.88	i	112	-0.2
CCOc1ccccc1OCCOc1ccccc1CC	x	x	-1	1.1	i	102	-2.8
Cc1ccc(NC(=O)N[C@@H](CC(C)C)C(=O)O)c(C)c1	x	x	x	1.2	i	111	x
O=C(Cn1ccc([N+](=O)[O-])n1)c1ccccc1	0	137	-3	0.87	i	117	x
CC(Sc1nncn1C)C(=O)Nc1ccc(S(N)(=O)=O)cc1 (stereo unspecified)	x	x	x	1.1	i	95	x
COc1ccc(-[n+]2c(C)cc(/C=C3\Sc4ccccc4N3C)cc2C)cc1	-400	56	-12	x	x	104	x
Cc1ccc(NC(=S)NC2CCCC2)cc1	10	89	5	0.93	i	90	-4.3
S=C(Nc1ccccc1Cl)N1CCN(Cc2ccccc2)CC1	0	128	-4	x	x	113	-0.9
CC1(C)CC(=O)c2cc(OCC(=O)N3CCN(c4ccccc4F)CC3)ccc2O1	-44	127	-12	1	i	101	-1.6
CCCCc1nc2sc3c(=O)[nH]cnc3c2c2c1CCCC2	x	x	x	1	i	99	x
COCc1[nH]nc2c1C(C1C=CCCC1)C(C#N)=C(N)O2 (stereo unspecified)	-30	81	-5	0.77	i	90	-2.0
COc1cc(Cl)c(S(=O)(=O)n2cnc(C)c2)cc1Cl	7	102	-9	0.94	i	108	-1.2
COc1ccc(-c2cc(C(=O)O)c3c(C)nn(-c4ccccn4)c3n2)cc1	14	70	-3	0.86	i	102	-3.0
Cc1ccc(OCC(=O)N2CCN(C(=O)c3cccs3)CC2)cc1	14	83	3	0.97	i	89	-1.1

One compound at a time, as listed above. Order of values: Insulin prom inh, Insulin prom inh cell count, PKD1 inh, HSV augment primary fold, HSV augment, RGS16-Gao, GALR2 agonist
`Cc1ccc(NC(=O)N[C@@H](CC(C)C)C(=O)O)c(C)c1` is listed with x, x, x, 1.2, i, 111, x
`COc1ccc(-[n+]2c(C)cc(/C=C3\Sc4ccccc4N3C)cc2C)cc1` is listed with -400, 56, -12, x, x, 104, x
`O=C(Cn1ccc([N+](=O)[O-])n1)c1ccccc1` is listed with 0, 137, -3, 0.87, i, 117, x

Next section.
Molecule	Insulin prom inh	Insulin prom inh cell count	PKD1 inh	HSV augment primary fold	HSV augment	RGS16-Gao	GALR2 agonist
CN1CCN(S(=O)(=O)c2cc([N+](=O)[O-])ccc2Cl)CC1	x	x	-6	0.99	i	119	x
CCOC(=O)Cn1c(=NC(=O)C(C)(C)C)sc2cc([N+](=O)[O-])ccc21	-8	168	2	1	i	101	-1.4
CCOc1cc(C(=S)N2CCOCC2)ccc1OS(=O)(=O)c1ccccc1[N+](=O)[O-]	-69	72	0	0.9	i	106	1.3
COc1ccc(-c2cc3ccccc3n2CC(O)CNCCO)cc1 (stereo unspecified)	11	164	3	1	i	99	-2.2
CCCC(=O)N1CCN(S(=O)(=O)c2cc(Cl)ccc2OC)CC1	6	170	10	0.95	i	108	-1.7
C=CCn1c(SCC(=O)OCC)nc2cc(C(=O)NCc3ccco3)ccc2c1=O	-44	91	-6	x	x	104	-3.9
CCOc1ccc(Oc2c(/C=N/NC(=O)C3CC3)c(C)nn2-c2ccccc2)cc1	17	95	2	0.96	i	56	-1.2
FC(F)(F)c1cccc(NC(=S)NCCN2CCOCC2)c1	-7	46	-10	1	i	160	-1.4
Cn1c(SCC(=O)Nc2ccc3c(c2)OCCO3)nnc1-c1ccco1	15	123	18	1.1	i	100	0.1
CC1CCCCC1NC(=O)CSc1nncs1 (stereo unspecified)	x	x	0	0.97	i	105	-1.5
CCOC(=O)c1oc2ccc(Br)cc2c1CSc1nnc(C)s1	x	x	-9	0.93	i	100	0.4
CCC(=O)NC(=S)Nc1ccc2oc(-c3ccc(OC)cc3)nc2c1	x	x	2	1	i	102	x
Cc1cccc(NC(=O)CSc2nc(C)c(Cc3ccccc3)c(=O)[nH]2)c1	-17	68	8	1	i	104	x
CC(C)Cn1cc(C(=O)N2CCOCC2)c2c3ccccc3n(C)c2c1=O	x	x	-4	1.1	i	105	-1.2
O=C(CSc1ncnc2c1nnn2Cc1ccccc1F)N1CCN(c2ccccc2)CC1	14	158	-2	1	i	103	-0.9

Additional entries follow:
Molecule	Insulin prom inh	Insulin prom inh cell count	PKD1 inh	HSV augment primary fold	HSV augment	RGS16-Gao	GALR2 agonist
O=C(CCc1ccccc1)Nc1nnc(-c2ccccn2)o1	x	x	-2	1.2	i	96	0.0
CCN1CCN(Cc2ccc(NC(=O)c3ccc(C)c(NC(=O)c4cccc5[nH]ccc45)c3)cc2C(F)(F)F)CC1	x	x	x	0.85	i	110	x
COc1ccc(Cc2nnc(SCC(=O)NCc3ccco3)o2)cc1	-3	188	-15	0.83	i	85	-0.1
O=C(CN1CCN(c2ccc([N+](=O)[O-])cc2)CC1)Nc1ccccn1	38	85	-6	0.95	i	107	-0.8
O=C(O)CSc1nnc(-c2ccc3c(c2)OCO3)n1-c1ccccc1	x	x	-5	1	i	142	x
CC(=O)c1ccc(-n2nnnc2SCC(=O)N2CCN(C(=O)c3ccco3)CC2)cc1	x	x	0	0.91	i	93	-2.0
CCOC(=O)NC(=O)/C(C#N)=C\c1ccccc1	45	130	-8	1.1	i	121	x
CCN(CC)c1nc(-c2cccc(OC)c2O)nc2ccccc12	x	x	5	0.89	i	101	-1.2
O=Cc1ccccc1OCCOc1ccccc1C=O	0	77	-5	0.7	i	110	1.0
CCOC(=O)N1CCC(NC(=O)c2ccc3nc(N4CCOCC4)sc3c2)CC1	-46	97	-1	0.99	i	99	-0.6
O=C(CCN1C(=O)c2cccc3cccc(c23)C1=O)N1CCOCC1	15	100	0	x	x	103	x
COC(=O)c1nnn(CC(=O)NC(=O)Nc2ccccc2)c1C(=O)OC	-52	121	-12	1	i	103	-1.2
COc1ccccc1Nc1nnc(SCC(=O)Nc2cc(C)on2)s1	-31	100	0	1	i	86	1.9
NS(=O)(=O)c1ccc(N=Nc2c(O)c(C(=O)O)cc3ccccc23)cc1	x	x	x	0.95	i	100	x
O=C(c1cc2cc(Br)ccc2oc1=O)N1CCN(c2ccccn2)CC1	x	x	1	0.86	i	103	-0.9

The listing continues.
Molecule	Insulin prom inh	Insulin prom inh cell count	PKD1 inh	HSV augment primary fold	HSV augment	RGS16-Gao	GALR2 agonist
O=C(COC(=O)c1ccc([N+](=O)[O-])s1)Nc1ccc(Cl)cn1	14	117	-11	0.97	i	104	-1.4
Cc1nccn1-c1ccc(C=O)cc1	x	x	-7	1	i	108	x
COC(=O)[C@@H]1C[C@@]2(O)[C@@H](O)[C@@H](O)[C@@H](O)C[C@H]2N1Cc1ccc(-c2ccccc2)cc1	x	x	x	0.79	i	96	x
N#Cc1cnc(Sc2ccccc2)nc1	-18	94	-8	0.93	i	112	x
C=CCn1c(C)cc(C(=O)CSc2nc3ccccc3[nH]2)c1C	12	100	1	0.9	i	112	-1.7
O=[N+]([O-])c1ccc2c(c1)ncn2-c1ccccc1	x	x	8	1	i	104	-1.0
CCN(CC)c1ccc(NC(=O)CCNC(=O)c2ccco2)cc1	-27	99	2	1.1	i	104	-1.0
Cc1nc(-c2ccc(S(=O)(=O)Nc3cccc(S(N)(=O)=O)c3)s2)cs1	x	x	x	0.9	i	105	x
Nc1nnc(CCc2ccccc2)s1	x	x	-16	0.89	i	103	-1.5
COc1cccc(OC)c1C(=O)N1CCN(c2c(Cc3ccccc3)c(C)nc3ncnn23)CC1	x	x	-9	1	i	44	-1.1
CS(=O)(=O)N(CC(=O)NCc1ccccc1Cl)c1cccc([N+](=O)[O-])c1	x	x	-3	1	i	106	x
CC(=NCCc1ccccc1)C1=C(O)CSC1=O	x	x	-3	0.91	i	105	-0.8
Cc1cnc(C(=O)OCC(=O)N2c3ccccc3NC(=O)C2(C)C)cn1	x	x	-2	0.83	i	98	-0.6
CC1CCCC(NC(=O)COC(=O)CCc2ccccc2)C1C (stereo unspecified)	41	109	5	0.96	i	101	x
c1ccc2c(c1)nc(NCc1ccc3c(c1)OCO3)n2CCN1CCOCC1	x	x	-3	1	i	99	x

Going on with the list:
Molecule	Insulin prom inh	Insulin prom inh cell count	PKD1 inh	HSV augment primary fold	HSV augment	RGS16-Gao	GALR2 agonist
CCc1cc(C(=O)NNC(=S)Nc2ccccc2C)cs1	25	26	12	0.84	i	118	0.3
Cc1ccc(-c2cc(C(=O)N/N=C/c3c(C)nn(C)c3C)c3ccccc3n2)c(C)c1	0	82	2	0.94	i	104	-0.3
COc1cc(SC)ccc1C(=O)Nc1nc(C)cs1	27	102	-3	0.91	i	90	x
COC(=O)Nc1ccc(Cc2ccncc2)cc1	-88	131	-3	1.1	i	98	x

This is a random part of the collection (roughly 1.1% active in at least one column).
